Bioassay records: PubChem, National Center for Advancing Translational Sciences (NCATS)
StopGo reporter: FMDV 2A StopGo reporter, luciferase signal. human cells with a luciferase reporter of 2A StopGo recoding; control for the full effect not named in the record. Potency, µM (top dose mostly 57.9 µM), without a hit: top-dose signal change, negative = less light. hit rate 1.2% among 410,000. AID 1159524; active = well fitted falling curve with a large enough effect; inconclusive = small, poorly fitted or top-dose-only effect; inactive = no such curve, though single readings can be large or run the other way; tested in HEK293T cells; further: on the % scale 0 is the no-effect control and ±100 the full control effect; nearly all actives have a fitted effect of over 45% in size; luciferase light after 4 h
SARS PLP yeast: blocks SARS-CoV papain-like protease in a yeast assay; Potency, µM (titrated, usually from 32.9 µM), without a hit: at the top dose activity, positive = growth rescue; S. cerevisiae expressing SARS-CoV PLpro, growth rescue; control for the full effect not named in the record; hit rate 0.19% among 330,000; active means well fitted rising curve with a large enough effect; inconclusive means small, poorly fitted or top-dose-only effect; inactive means no such curve, though single readings can be large or run the other way; further: 0% is about no effect; nearly all actives have a fitted effect of over 55% in size; growth read by luminescence after 48 h
RE007 growth inh: less growth of the S. pombe RE007 Vpr strain. hit rate 0.21% among 360,000. Potency, µM (top dose mostly 92.2 µM), for the others: top-dose activity change, negative = less growth. S. pombe RE007 Vpr strain, BacTiter-Glo ATP luminescence, 24 h; control for the full effect not named in the record; active = well fitted falling curve with a large enough effect; inconclusive = small, poorly fitted or top-dose-only effect; inactive = no such curve, though single readings can be large or run the other way;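 further: on the % scale 0 is the no-effect control and ±100 the full control effect; nearly all actives have a fitted effect of over 50% in size; the assay follows cell death caused by Vpr and the record does not say whether a fall means rescue or toxicity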
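Fission yeast RE007 carrying one integrated HIV-1 vpr copy, seeded at OD 0.01 in PMG+AL medium with 23 nL pinned compound. Grown 24 h at 30 degrees; viability read by BacTiter-Glo luminescence after 5 min.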
Numbers without * were called inactive; ? = inconclusive; [ ] = dose if it differs, or a comment. Potency means the concentration at half of the fitted maximal effect. Not all compounds are listed; rates above refer to the full screens.

SMILES	StopGo reporter	SARS PLP yeast	RE007 growth inh
Cc1cc(C)c(S(=O)(=O)NCCSCc2ccco2)c(C)c1	43.1%[activator]	-1.0%	-2.2%
COc1ccc(OC)c(CC(NC(C)=O)C(=O)NC2CCN(c3nc(OC)nc(OC)n3)CC2)c1 (stereo not drawn)	-24.4%	3.6%	-5.2%
Cc1ccc(CN2C(=O)CNC2=S)cc1	-10.0%	0.2%	-10.7%
CCN1C(=O)[C@H]2[C@@H](c3ccc(-c4ccc(F)cc4)c(OC)c3)N[C@@](C)(C(=O)OC)[C@H]2C1=O	0.0%	2.5%	-25.1%
O=C(Cc1ccccc1)N1O[C@H]2C=C[C@@H]1CC2	0.9%	-12.0%	1.1%
CC[C@]12c3[nH]c4ccccc4c3CCN1C(=O)C(CC(=O)NC/C=C(\C)CCC=C(C)C)C[C@@H]2C(=O)N1CCN(C(=O)C2CC2)CC1 (stereo partly drawn)	-25.8%	-0.4%	5.6%
COC(=O)[C@H](Cc1ccc(O)cc1)NC(=O)Cn1cnc(C(=O)Nc2ccc(C)c(C)c2)n1	13.5%	3.8%	-11.4%
Cc1ccc(C(=O)OCC(=O)NC(=O)NCc2ccccc2)cc1C	-6.8%	-3.3%	1.5%
O=C(CCNS(=O)(=O)c1cccc(C(F)(F)F)c1)NC1CC1	-11.4%	3.1%	0.2%
COC(=O)C1=C(c2ccc(S(C)(=O)=O)cc2)C[C@@H]2CC[C@H]1N2C	12.5%	-0.1%	-8.4%
CCN(CC(=O)NCc1cccs1)C(=O)c1ccc(S(=O)(=O)Nc2ccccc2Cl)cc1	-7.5%	8.1%	12.8%
CCN(C(=O)CSc1ncccn1)c1cccc2ccccc12	5.7%	0.6%	6.4%
O=C(NC(=S)NNC(=O)c1cnccn1)c1ccc(F)cc1	4.5%	?	-4.0%
CC(Oc1ccc(Br)cc1)C(=O)NCC1(N2CCCCC2)CCCCC1 (stereo not drawn)	-15.5%	0.2%	-17.0%
FC(F)Sc1ccc(-n2c(-c3ccc(Cl)cc3)c[n+]3c2CCC3)cc1	-24.9%	-0.4%	-10.3%
O=C(COC(=O)c1ccc(OC(F)(F)F)cc1)NCCN1C(=O)CSC1=O	-7.9%	0.2%	-5.7%
Cc1ccc(S(=O)(=O)NC(C)C(=O)OCC(=O)N(C)c2ccccc2)cc1 (stereo not drawn)	1.9%	0.2%	33.7%
C(=C\n1nnc2ccccc21)/c1ccccn1	5.3%	0.1%	-20.1%
O=c1cc(CN2CCN(S(=O)(=O)c3ccccc3)CC2)nc2ccc(Cl)cn12	-5.6%	1.4%	5.2%
CC1CCCN(S(=O)(=O)c2ccc(NC(=O)C3CCN(C(=O)C(C)(C)C)CC3)cc2)C1 (stereo not drawn)	-13.9%	-20.3%	-6.6%

5 structures from above, arranged by number of heavy atoms, lowest first:
SMILES	StopGo reporter	SARS PLP yeast	RE007 growth inh
O=C(NC(=S)NNC(=O)c1cnccn1)c1ccc(F)cc1	4.5%	?	-4.0%
FC(F)Sc1ccc(-n2c(-c3ccc(Cl)cc3)c[n+]3c2CCC3)cc1	-24.9%	-0.4%	-10.3%
CC(Oc1ccc(Br)cc1)C(=O)NCC1(N2CCCCC2)CCCCC1 (stereo not drawn)	-15.5%	0.2%	-17.0%
Cc1ccc(S(=O)(=O)NC(C)C(=O)OCC(=O)N(C)c2ccccc2)cc1 (stereo not drawn)	1.9%	0.2%	33.7%
CCN(CC(=O)NCc1cccs1)C(=O)c1ccc(S(=O)(=O)Nc2ccccc2Cl)cc1	-7.5%	8.1%	12.8%

By substructure, the entries above with an aryl thioether with sulfur outside any ring
SMILES	StopGo reporter	SARS PLP yeast	RE007 growth inh
CCN(C(=O)CSc1ncccn1)c1cccc2ccccc12	5.7%	0.6%	6.4%
FC(F)Sc1ccc(-n2c(-c3ccc(Cl)cc3)c[n+]3c2CCC3)cc1	-24.9%	-0.4%	-10.3%

The list goes on:
SMILES	StopGo reporter	SARS PLP yeast	RE007 growth inh
CCN1C[C@@H]2[C@@H]3C(=O)N(Cc4ccccc4)C(=O)[C@@H]3[C@](C)(C(=O)OC)N2C1=NC	-10.4%	25.1%	-0.1%
CCCCCCSc1cc(-c2nc3cc(C)ccn3c2NCCCC)ccc1OC	?	2.5%	?
C#CCOCCOCCOCCNc1nc(N2CCN(C(=O)CCCCCCCCCCNC(=O)Cn3cc(C[C@@H](C)O)nn3)CC2)nc(N2CCN(C(=O)CCCCCCCCCCNC(=O)[C@@H]([C@H](C)CC)n3cc(CCCCCN)nn3)CC2)n1	35.5µM*	-4.9%	7.1%
CN1CCN(C(=S)c2cn(Cc3ccccc3F)c3ccccc23)CC1	40.7%[activator]	1.4%	2.2%
Cc1ccc2c(c1)[C@H]1[C@H](CO2)[C@H](c2ccccc2)[C@]2(C)C(=O)N(CC3CCCO3)CC(=O)N12 (stereo partly drawn)	-16.2%	15.8%	0.9%
COc1ccc2c(c1)[C@@H]1[C@H](CO2)[C@H](c2ccccc2)[C@]2(C)C(=O)NCC(=O)N12	-25.2%	-14.4%	2.3%
CCc1ccccc1NC(=O)CN1CCN(C(=O)CNC(=O)Cc2cccc3ccccc23)CC1	?	-1.5%	-11.0%
CC(=O)Nc1ccc(S(=O)(=O)Nc2ccc(C)c([N+](=O)[O-])c2)cc1	33.3%[activator]	0.4%	19.4%
CCN(CC)C(=O)[C@H]1C[C@H](CC(=O)NCCN2CCOCC2)C(=O)N2CCc3c([nH]c4cc(CCC(=O)N(C)C)ccc34)[C@]12C	-2.3%	2.1%	0.3%
CC(C)N(C(=O)[C@H]1C[C@H](CC(=O)NCC23CC4CC(CC(C4)C2)C3)C(=O)N2CCc3c([nH]c4ccc(Cl)cc34)[C@]12C)C(C)C	?	-43.3%	1.6%
Fc1ccc(N/N=C/c2cccnc2)c(F)c1	49.0%[activator]	-3.2%	52.3%
CN(c1ccccc1)S(=O)(=O)c1ccc(C(=O)Nc2nnc(C3CC3)o2)cc1	-2.2%	7.4%	-0.7%
O=C(Cc1ccc2c(c1)OCCO2)Nc1ccc(Cl)c(S(=O)(=O)N2CCOCC2)c1	-16.2%	-18.8%	-6.8%
COc1cccc(NC(=O)CN(C)C(=O)c2cc3ccccc3cc2OC)c1	?	0.9%	-8.2%
COc1ccc(NC(=O)Cn2c(C(C)C)nc(C)cc2=O)cc1Cl	-12.8%	-3.5%	6.9%
COc1ccc(C(=O)OCC(=O)NC2CC2)cc1OC	4.5%	1.4%	-4.3%
CCOc1ccccc1OCCCC(=O)Nc1ccc(Cl)c(S(=O)(=O)N2CCOCC2)c1	?	4.5%	11.8%
O=c1oc(-c2ccc(O)c(O)c2)cc2cccc(O)c12	6.8%	-12.3%	-1.2%
C[C@H](CO)N1C[C@H](C)[C@@H](CN(C)S(=O)(=O)c2ccccc2)Oc2c(NC(=O)Nc3ccc(C(F)(F)F)cc3)cccc2C1=O	-29.8%	-4.0%	2.3%
CCSc1ccc([C@@H]2[C@H]3C(=O)N(CC)C(=O)[C@H]3[C@]3(C(=O)OC)CCCCN23)cc1	-14.7%	-2.1%	-2.1%
NC(=O)c1ccsc1NC(=O)COC(=O)c1c(F)cccc1Cl	-23.1%	-8.4%	-3.1%
COc1ccc(CNC(=O)COc2ccccc2C(=O)c2cnn(-c3ccccc3)c2)cc1OC	-16.8%	5.8%	-3.1%
CCCCCC(=O)Nc1ccc(S(=O)(=O)NC2=NCCCCC2)cc1	16.5%	-0.5%	7.7%
Cc1cc(Br)ccc1NC(=O)CN(C)C(=O)c1ccc(-n2cncn2)c([N+](=O)[O-])c1	-6.9%	-0.3%	11.3%
CCC(C)NC(=O)c1ccc(NC(=O)CC2SC(N3CCCCC3)=NC2=O)cc1 (stereo not drawn)	-10.5%	2.4%	1.0%
COc1ccc(C(=O)NCCc2cc3ccc(C)c(C)c3[nH]c2=O)cc1OC	-8.9%	-4.2%	-4.9%
Cc1cccc(NC(=S)N(CCCN2CCOCC2)C(C)c2cc3ccccc3o2)c1C (stereo not drawn)	80.6%[activator]	3.7%	-9.4%
COc1ccc(/[N+]([O-])=C/c2ccco2)cc1	16.6%	-4.7%	7.5%
CC(NCC(=O)Nc1ccccc1C(=O)NC1CC1)c1ccc(S(N)(=O)=O)cc1 (stereo not drawn)	-21.2%	11.0%	12.4%
CC1CCN(C(=O)COC(=O)c2cn(C)c3ccccc23)CC1	24.0%	-12.2%	5.3%
Cc1onc(-c2ccccc2)c1C(=O)OCC(=O)Nc1ccc(OC(F)(F)F)cc1	?	-7.0%	-7.1%
C[C@H](CO)N1C[C@H](C)[C@@H](CN(C)S(=O)(=O)c2cn(C)cn2)Oc2ccc(NC(=O)C3CCCCC3)cc2C1=O	-1.1%	0.6%	6.8%
CCOC(=O)C1=C(CC)Nc2ccccc2N=C1NC(=O)c1cc(S(=O)(=O)N2CCOCC2)ccc1C	-17.2%	-5.9%	0.8%
CCOC(=O)c1sc(NC(=O)CN2C(=O)NC3(CCC(C)CC3)C2=O)c(C(=O)OCC)c1C (stereo not drawn)	-5.8%	14.6%	0.0%
Cc1ccc(NC(=O)C(c2ccccc2)N2CCN(C(=O)c3ccco3)CC2)cc1 (stereo not drawn)	19.9%	-7.4%	7.1%
O=C(C[C@H]1C[C@H](C(=O)N2CCCCC2)[C@@]2(CCc3ccccc3)c3[nH]c4ccc(Cl)cc4c3CCN2C1=O)NCCN1CCOCC1	-11.2%	-14.3%	2.1%
CCN1CCCc2cc(CN(CCN3CCOCC3)C(=S)Nc3cccc(OC)c3)ccc21	-4.0%	0.1%	-3.1%
Cc1cc(C)c(OCC(=O)Nc2nc3ccccc3[nH]2)c(C)c1	17.1%	4.9%	4.4%
Cc1ccccc1NC(=O)COC(=O)c1ccc2nc(C)c(C)nc2c1	16.6%	-6.2%	8.9%
O=C(NCCC(=O)N1CCN(Cc2c(F)cccc2Cl)CC1)c1ccc(Cl)cc1	?	-3.4%	6.4%
O=C1CCC(C(=O)OC(C(=O)Nc2ccc([N+](=O)[O-])cc2Br)c2ccccc2)=NN1 (stereo not drawn)	-5.7%	-10.8%	27.7%
Cc1nn(-c2ccccc2)c(C)c1/C=C/C(=O)OCC(=O)Nc1ccc(C(N)=O)cc1	1.4%	-7.4%	7.2%
C#CCOCCOCCOCCNc1nc(N2CCOCC2)nc(N2CCN(C(=O)[C@H](CCCCN)n3cc(CN)nn3)CC2)n1	-10.8%	-4.6%	2.7%
CC1CCCC(NC(=O)COC(=O)c2cccc(S(=O)(=O)N3CCCCC3)c2)C1C (stereo not drawn)	-18.3%	-8.0%	-2.0%
Cc1cccnc1NC(=S)NCc1ccco1	17.1%	-0.3%	-14.2%
NS(=O)(=O)c1ccc(CCNC(=O)c2ccc3nc4ccc(Cl)cc4c(=O)n3c2)cc1	-20.5%	0.2%	-9.4%
O=C(CSc1nnc2ccccn12)NC(=O)c1ccccc1Cl	-6.2%	1.9%	5.4%
CCC(C)C(=O)Nc1nnc(SCC(=O)Nc2ccccc2F)s1 (stereo not drawn)	-18.4%	2.4%	15.9%
CCCCC/C=C/C1=CC(=O)C[C@H](c2ccc(Cl)cc2)C1	?	0.0%	-14.7%
C=CCC[C@@H](Cc1ccc(F)cc1)C(=O)OC[C@H](C)NC(=O)[C@@H](CC=C)CC(=O)N(CCO)Cc1ccccc1	-9.6%	2.6%	-4.7%

New compounds follow:
SMILES	StopGo reporter	SARS PLP yeast	RE007 growth inh
O=C(COC(=O)CC1SC(N2CCCC2)=NC1=O)Nc1c(F)c(F)c(F)c(F)c1F (stereo not drawn)	47.6%[activator]	3.9%	6.3%
COc1ccc(Br)c(C(=O)OCC(=O)NC2CC2)c1	0.6%	4.3%	-6.7%
CC(NC(=O)C1CCN(C(=O)c2ccc(F)cc2)CC1)c1ccc(-n2ccnc2)cc1 (stereo not drawn)	-0.3%	-1.6%	0.6%
CC(C)N(C(=O)[C@H]1CC(CC(=O)NCC23CC4CC(CC(C4)C2)C3)C(=O)N2CCc3c([nH]c4ccccc34)[C@]12C)C(C)C (stereo partly drawn)	0.0%	-1.0%	4.6%
CC(C)(C)OC(=O)N[C@@H](Cc1ccccc1)C(=O)N[C@@H](CO)[C@H](O)[C@@H]1C[C@@H]1C(=O)NC1CCCCC1	-5.6%	-11.9%	1.4%
Cc1noc(C)c1NC(=O)Nc1ccc2c(c1)C(=O)N([C@@H](C)CO)C[C@@H](C)[C@@H](CN(C)Cc1ccc3c(c1)OCO3)O2	-10.0%	-0.4%	3.6%
CN(C)c1ccc(S(=O)(=O)NCC(=O)OCC(=O)NC(=O)C2CCCCC2)cc1[N+](=O)[O-]	1.2%	2.1%	-1.4%
COc1cc([N+](=O)[O-])ccc1NC(=O)COC(=O)CCOc1ccc(C)cc1	?	-22.4%	-17.3%
COc1ccc(/C=C(/NC(=O)c2cccc([N+](=O)[O-])c2)C(=O)O)cc1	-3.6%	1.8%	-2.9%
CCCCCCSc1ccc([C@H]2N[C@@](CC(C)C)(C(=O)OC)[C@H]3C(=O)N(C)C(=O)[C@@H]23)cc1OC	13.5%	-3.7%	-8.1%
